Screening results as filed in PubChem.
NPYLR7 ag = activates Aedes aegypti NPYLR7 receptor; HEK293T NPYLR7/Galpha15, GCaMP6s calcium fluorescence; activation, % at 10 µM; 0.15% of 270,000 active; in the data active = activation above about 40%;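 note: 0% = vehicle and 100% = reference agonist at the receptor; some compounds past the cut are filed as inactive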
NPYLR7 ag max-min = recorded beside NPYLR7 ag, whose call it bears; activation, %; measured here: Max-Min RFU normalised activation; some inactives read as strong as hits;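 span of the calcium signal over five minutes; 0% = vehicle and 100% = native peptide agonist; compound fluorescence can raise it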
Active calls of the source: *; & = joins results of further samples.

SMILES	NPYLR7 ag	NPYLR7 ag max-min
C[C@]12CCC(=O)C=C1[C@@H]1C[C@@H]1C1C2CC[C@@]2(C)C1[C@@H]1C[C@@H]1[C@@]21CCC(=O)O1 (stereo partly drawn)	12	11
O=C(c1cc(Cc2ccccc2)ccc1O)N1CCN(C(=O)N2CCCCC2)CC1	8	10
Cc1ccc(S(=O)(=O)NCCc2csc3nc(-c4cccs4)nn23)cc1	0	-2
Cc1ccc(NC(=O)c2ccoc2)cc1S(=O)(=O)N1CCCCCC1	5	-2
CCOC(=O)Cn1c(Cl)c(/C=N\NC(=O)c2ccccc2F)sc1=O	-9	-15
O=C(CSc1ncc(-c2ccccc2)n1C1CC1)NC1CCCC1	6	6
COc1c(C)cnc(CSc2nnc(NC3CC3)s2)c1C	4	2
COc1ccc(NC(=S)N=Nc2c(O)[nH]c3ccc(F)cc23)cc1OC	-4	-5
CSc1nn(CC(=O)NCc2ccccc2)c(N)c1-c1nc(-c2ccc3c(c2)OCO3)no1	23	15
N#Cc1ncn(Cc2cc3c(cc2Br)OCCO3)n1	5	1
COc1ccc(CN2CCN(CC=C(C)C)CC2)cc1	11	7
CCN(CCC#N)Cn1nc(-c2ccccc2)n(C)c1=S	-5	-6
CCC1CN(Cc2cnn(C)c2C2CC2)CCN1C(C)C (stereo not drawn)	-5	-5
O=C(NC(c1ccc(F)cc1)c1ccc2ccccc2n1)C1CCN(CCOc2ccc(Cl)cc2)CC1 (stereo not drawn)	3	-1
Cc1ccnc(NC(=O)c2sccc2S(=O)(=O)N2CCCC2)c1	8	2
COCCN(Cc1cc(NC(=O)c2ccccc2Cl)ccc1N(C)C)C(=O)c1ccc(OC)cc1	22	18
CCCC(=O)N1CCCC1C(=O)C(C#N)c1nc(C)cs1 (stereo not drawn)	10	8
Cc1cccc(N=c2oc3ccc4ccccc4c3cc2-c2nc3ccccc3[nH]2)c1	2	9
COC(=O)CCCC(=O)NC1CCCN(c2ccc(C(F)(F)F)cn2)C1 (stereo not drawn)	1	1
Cc1nn(C(=O)c2cccnc2)c(C)c1Sc1ccccc1	0	6
O=C(O)c1cc(S(=O)(=O)N(Cc2ccco2)c2ccccc2)ccc1F	10	7
O=c1c2ccccc2ncn1CCCCSc1ccccc1	4	0
CCOC(=O)c1nn(-c2ccc(OCC)cc2)c2nc(-c3cccc(OC)c3)c(C#N)c(=O)n12	-5	-10
CCOc1ccc(C2=NOC(C)C(=O)N2)cc1 (stereo not drawn)	5	0
COc1cccc(F)c1COc1ccc2c(C3CC3)noc2n1	2	1
CCc1nccc(CN2CCC(CNC(=O)C3CCC(C)CC3)C2)n1 (stereo not drawn)	5	4
O=c1[nH]c(CN2CCN(Cc3c(F)cccc3Cl)CC2)nc2ccc(Cl)cc12	-3	-3
CCc1cc(N2CCCCC2C)nc(SCc2ccc(C(=O)O)o2)n1 (stereo not drawn)	5	8
NS(=O)(=O)c1ccc(CNC(=O)/C=C/c2c(Cl)cccc2Cl)cc1	5	11
COc1nc(-c2cccc(C(F)(F)F)c2)n(-c2cccc(NC(=O)c3cccc([N+](=O)[O-])c3)c2)n1	-1	2

In the list so far, these have a CF3 group.
SMILES	NPYLR7 ag	NPYLR7 ag max-min
COC(=O)CCCC(=O)NC1CCCN(c2ccc(C(F)(F)F)cn2)C1 (stereo not drawn)	1	1
COc1nc(-c2cccc(C(F)(F)F)c2)n(-c2cccc(NC(=O)c3cccc([N+](=O)[O-])c3)c2)n1	-1	2

Carrying on:
SMILES	NPYLR7 ag	NPYLR7 ag max-min
COC(=O)[C@@H]1C[C@H](C(=O)N(C)Cc2ccccn2)[C@H](c2cccc(Cl)c2)N1C	6	4
Cn1cc(CN2CCNC(=O)CC2)c(-c2cccc(Cl)c2)n1	3	-1
O=C(Cc1coc(-c2ccccc2)n1)NC1C2CCCCC21 (stereo not drawn)	2	1
CCOC(=O)C1(C(F)(F)F)C(C#N)C(N)=Nc2cc(-c3ccc(OC)cc3)nn21 (stereo not drawn)	-1	-7
CCc1cccc(C)c1NC(=O)CN(C)C1=NS(=O)(=O)c2ccccc21	8	6
CNC(=O)NC(=O)CSc1nnc(Cc2cccs2)n1C1CC1	6	6
O=[N+]([O-])c1cnccc1Sc1cccc(C(F)(F)F)c1	-8	-10
CCN1CCN(Cc2c(O)cc(C)c3c2O/C(=C\c2cc4ccccc4o2)C3=O)CC1	18	13
CCOCCCN(CC(=O)N(Cc1cccn1Cc1ccc(F)cc1)C1CCCCC1)C(=O)c1cccs1	0	4
CCN1CCN(c2c(CN(CCOC)C(=O)Cc3ccc(OC)cc3)c(C)nn2-c2cccc(F)c2)CC1	-1	3
O=C(CCN(Cc1ccco1)c1nc(-c2ccccc2)nc2cc(Cl)ccc12)Nc1ccccc1	8	7
Cc1[nH]c2ccc(Br)cc2c1CC(=O)NNS(=O)(=O)c1ccccc1	3	14
CN(C)C(=O)c1ccc2c(c1N)C(=O)c1ccccc1C2=O	-1	-8
CN(Cc1ccc(C#N)cc1)Cc1ccco1	9	7
COCCn1c(SCC(=O)OC(C)C)nc2sc(C)c(C)c2c1=O	14	12

Individual results from the list:
CCN1CCN(c2c(CN(CCOC)C(=O)Cc3ccc(OC)cc3)c(C)nn2-c2cccc(F)c2)CC1 | NPYLR7 ag max-min: 3
COCCn1c(SCC(=O)OC(C)C)nc2sc(C)c(C)c2c1=O | NPYLR7 ag: 14
CCN1CCN(Cc2c(O)cc(C)c3c2O/C(=C\c2cc4ccccc4o2)C3=O)CC1 | NPYLR7 ag: 18
Cn1cc(CN2CCNC(=O)CC2)c(-c2cccc(Cl)c2)n1 | NPYLR7 ag: 3
CNC(=O)NC(=O)CSc1nnc(Cc2cccs2)n1C1CC1 | NPYLR7 ag: 6
COC(=O)[C@@H]1C[C@H](C(=O)N(C)Cc2ccccn2)[C@H](c2cccc(Cl)c2)N1C | NPYLR7 ag: 6

Continuation:
SMILES	NPYLR7 ag	NPYLR7 ag max-min
O=C(Nc1ccc(F)cc1)c1csc(COc2ccc(Cl)cc2)n1	5	7
Cc1cccn2c(F)c(C(F)(F)F)nc12	-6	-15
Cc1[nH]n(-c2nc(-c3ccc(Br)cc3)cs2)c(=O)c1N=Nc1ccc(Oc2ccccc2)cc1	1	-4
CCN1CCN(C(c2ccccc2)C2Sc3ncnn3C2=O)CC1 (stereo not drawn)	7	5
NS(=O)(=O)CCCC(=O)N1CCCC(Nc2ccc(F)c(F)c2)C1 (stereo not drawn)	10	6
CCOC(=O)C1=C(C)N=C2SC=C(CC(=O)N3CCCCC3C)N2C1c1ccccc1C (stereo not drawn)	2	0
COc1ccc(NC(=O)N2CC(=O)N3CCc4cc(F)ccc4C3C2)c(C)c1 (stereo not drawn)	23	11
O=C(c1ccc2ncccc2c1)N1CCC2(CCCO2)CC1	8	5
CCc1cnc(-c2cc(F)c3c(c2)CC(CN)O3)nc1 (stereo not drawn)	6	4
CC(NC(=O)Nc1cc(F)c(N(C)C)c(F)c1)c1nccs1 (stereo not drawn)	4	3
CN1C(C(=O)NCCN2CCOCC2)=CC(c2ccco2)=NS1(=O)=O	3	-1
Cc1ccc(C)c(S(=O)(=O)NCCNc2cc(-n3ccnc3C)ncn2)c1	-14	-23
Cc1cc(OCC2CN(C(=O)CCNC(=O)OCc3ccccc3)CCO2)ccc1Cl (stereo not drawn)	6	17
CCC1CN(Cc2c(Cl)ccc(O)c2Cl)CCN1C(C)C (stereo not drawn)	-2	-4
Oc1cccc(C=NN=C(c2ccccc2)c2ccccc2)c1O	6	5
Fc1c(CN2CCCC2)cccc1Oc1ncccc1C(F)(F)F	16	10
C=CCn1c(SCC(=O)NCc2ccccc2)nc2sc3c(c2c1=O)CCC3	-3	-9
COCCc1noc(CN2CCc3onc(-c4ccc(Cl)cc4)c3C2)n1	24	10
O=C(c1ccc2c3c(cccc13)CC2)C1CCCN(C(=O)c2cncs2)C1 (stereo not drawn)	20	7
CCN(CC(C)(C)O)C(=O)c1ccc(Br)c(F)c1	10	7
Cc1ccccc1N1CCn2c1nc1c2c(=O)n(CCN2CCOCC2)c(=O)n1C	3	2
O=C(NCCOc1ccccc1F)C12CC3CC(CC(C3)C1)C2	-3	-8
CCc1nc2ccc(C(=O)N3CCN(C(C)=O)CC3)cn2c1N(C=O)Cc1ccc(OC)cc1	19	22
O=C1CC(c2nc(-c3cccc(Cl)c3)no2)CN1c1ccc2c(c1)OCCO2 (stereo not drawn)	4	3
COc1nc2ccccc2nc1N1CCC(C(N)=O)CC1	10	-1
COc1ccccc1-n1cc(C(=O)NCCS(C)(=O)=O)cn1	8	7
O=S1(=O)CCC(N(Cc2cccc(Cl)n2)CC2CCCO2)C1 (stereo not drawn)	3	4
CCCn1ncc(CN2CCCC(Cc3cccc(OC)c3)(C(=O)OCC)C2)c1C (stereo not drawn)	-2&-7	-7&-12
Cc1cc2nc(-c3cc(NC(=O)c4ccc(F)cc4)ccc3O)oc2cc1C	8	6
CCOc1cc(-c2cc(C(=O)O)c3[nH]c(-c4ccccc4)nc3n2)ccc1O	0	-2
CC(C)Sc1ccccc1NC(=O)CC1CCCO1 (stereo not drawn)	2	-3
CC1=NC2=C(C(=O)CCC2)C(c2cccc(C(F)(F)F)c2)C1C(=O)OCC1CCCO1 (stereo not drawn)	-10	-13
C=CCN1CC(C(=O)NCc2ccc(N3CCCC3=O)cc2)CC1=O (stereo not drawn)	3	0
O=C(Cn1cnc2sccc2c1=O)NC(=O)NC12CC3CC(CC(C3)C1)C2	3	7
Cn1c(=O)c2c(SCC(=O)Nc3ccc(C(F)(F)F)cc3)nc(C3CCCC3)nc2n(C)c1=O	-3	-9
C=CCN1C(=O)C2(CC(=O)N(CCOc3ccccc3)C2=O)c2cc(OC)ccc21 (stereo not drawn)	3	-6
Cn1c(=O)n(Cc2ccccc2)c(=O)c2c1nc1n2CCN1c1ccccc1	11	4
CSc1nc2c(c(=O)[nH]c(=O)n2C)n1Cc1ccccc1	-18	-16
CCNS(=O)(=O)c1ccc(F)c(C(=O)N2CCC(c3n[nH]c(=S)o3)CC2)c1	1	4
Cc1cc(N2CCC(N(C)C(=O)NC(C)C)CC2)nc(C)n1	7	4
CC(C(N)=O)N(c1ccc(Oc2ccccc2)cc1)S(C)(=O)=O (stereo not drawn)	3	1
CC(Oc1nncc2ccccc12)C(=O)Nc1ccc(Cl)cc1Cl (stereo not drawn)	9	4
CCN(CC)S(=O)(=O)c1ccc(Cl)c(NC(=O)N2CCCC(N3CCCC3)C2)c1 (stereo not drawn)	4	2
O=C(Cn1cc(-c2nnc(-c3ccccc3)o2)c2ccccc21)NCCc1ccccc1	-1	2
O=C(c1cc(-c2ccccc2)n[nH]1)N1CCC(C(O)(c2ccccc2)c2ccccc2)CC1	-5	-12

Molecules shown so far that contain an aryl thioether with sulfur outside any ring, in the order listed:
SMILES	NPYLR7 ag	NPYLR7 ag max-min
O=C(CSc1ncc(-c2ccccc2)n1C1CC1)NC1CCCC1	6	6
COc1c(C)cnc(CSc2nnc(NC3CC3)s2)c1C	4	2
CSc1nn(CC(=O)NCc2ccccc2)c(N)c1-c1nc(-c2ccc3c(c2)OCO3)no1	23	15
Cc1nn(C(=O)c2cccnc2)c(C)c1Sc1ccccc1	0	6
O=c1c2ccccc2ncn1CCCCSc1ccccc1	4	0
CCc1cc(N2CCCCC2C)nc(SCc2ccc(C(=O)O)o2)n1 (stereo not drawn)	5	8
CNC(=O)NC(=O)CSc1nnc(Cc2cccs2)n1C1CC1	6	6
O=[N+]([O-])c1cnccc1Sc1cccc(C(F)(F)F)c1	-8	-10
COCCn1c(SCC(=O)OC(C)C)nc2sc(C)c(C)c2c1=O	14	12
C=CCn1c(SCC(=O)NCc2ccccc2)nc2sc3c(c2c1=O)CCC3	-3	-9
CC(C)Sc1ccccc1NC(=O)CC1CCCO1 (stereo not drawn)	2	-3
Cn1c(=O)c2c(SCC(=O)Nc3ccc(C(F)(F)F)cc3)nc(C3CCCC3)nc2n(C)c1=O	-3	-9
CSc1nc2c(c(=O)[nH]c(=O)n2C)n1Cc1ccccc1	-18	-16

Next section
SMILES	NPYLR7 ag	NPYLR7 ag max-min
C=Cc1ccc(C(=O)N2CCC3(CCCNC3)C2)cc1 (stereo not drawn)	0	1
CCOc1cc(Br)cc(/C=N\Nc2nc(N3CCCCC3)nc(N3CCCCC3)n2)c1O	20	21
O=C(Nc1ccnn1C1CCCCC1)c1cc2c(s1)CCC2	2&6	2&3
Cn1nnnc1SCC(=O)Nc1ccc(Cl)cn1	6	0
CN1CCN(NC(=O)NC2CC(=O)N(c3ccccc3)C2)CC1 (stereo not drawn)	6	6
COc1cc2nc(-c3ccc([N+](=O)[O-])cc3Cl)oc(=O)c2cc1OC	-1	-9
CC(C)CNC(=O)C1(C)CCCN1Cc1ccc(S(C)(=O)=O)cc1 (stereo not drawn)	3	1
COCCNC(=O)c1cc2nc(-c3ccccc3)cc(C(F)(F)F)n2n1	0	-4
CC(=O)c1ccc(S(=O)(=O)N2CCCC(N(C)CCc3ccccn3)C2)cc1 (stereo not drawn)	4	1
Cn1ccsc1=NC(=O)c1ccc(CS(C)(=O)=O)cc1	0	-3
CCn1cc(C(=O)N2CCN(CC(=O)N(C)c3ccccc3)CC2)c2nn(-c3ccccc3)c(=O)c-2c1	-1	-5
CCN(Cc1ccncc1)C1CCCN(S(=O)(=O)c2cc3ccccc3s2)C1 (stereo not drawn)	0	-6
CCNC(=O)N1CCc2nc(Nc3cc(C)cc(C)c3)ncc2C1	11	5
O=C(Cc1cccs1)NCCOc1cc(N2CCCC2)ncn1	0	-2
CC(OC(=O)CCc1ccsc1)C(=O)c1ccc(NS(C)(=O)=O)cc1 (stereo not drawn)	1	4
CCSc1nnc2c(n1)OC(/C=C/c1ccco1)Nc1ccccc1-2 (stereo not drawn)	-3	-7
O=C(NCc1ccco1)c1csc(COc2cccc(C(F)(F)F)c2)n1	4	13
Cc1ccc(NC(=O)N(CC(=O)N(CCc2c[nH]c3ccccc23)Cc2ccc(C(F)(F)F)cc2)C2CC2)cc1Cl	-9	-2

These rows are one share of the data; count on the stated rates, not on these rows.
